# Compound activity: PubChem, National Center for Advancing Translational Sciences (NCATS)
# HSD17B inh = qHTS Assay for Inhibitors of HSD17B4, hydroxysteroid (17-beta) dehydrogenase 4; 7.6% of 75,000 active; recombinant HSD17B10, NADH fluorescence kinetic; many of its hits are not listed in these tables; Potency, µM (titrated, usually from 57.1 µM), inactives show top-dose activity change, negative = inhibition, usual class: inhibitors; 3-hydroxyacyl-CoA dehydrogenase type-2 (Homo sapiens), Q99714; active = well fitted inhibition curve with a large enough effect; inconclusive = small, poorly fitted or top-dose-only effect; inactive = no such curve, though single readings can be large or run the other way;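 also: the protocol describes HADH2 (HSD17B10) and not the HSD17B4 of the title; nearly all actives have a fitted effect of over 70% in size; most hits overshoot -100% by far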
#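 His-tagged E. coli-expressed HADH2 at 20 nM in 100 mM Tris-HCl pH 9.0 with 0.01 % Tween-20, preincubated 15 min with compound at room temperature. Reaction with 1 mM NAD+ and 90 uM beta-hydroxybutyryl coenzyme A; NADH fluorescence (360/450 nm) read kinetically over 4 min, last minus first point.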
# * marks the source's active call; other numbers are inactive results; ? = inconclusive; [ ] = dose if it differs, or a comment. % is scaled to controls: 0 for no effect and ±100 for the full control effect; potency is read from the fitted curve at half-maximal effect. These rows are one share of the data; rates above refer to the full screens.
smiles | HSD17B inh
Cn1c(C(=O)OC(C(=O)NC2CCCCC2)c2ccncc2)cc2sccc21 (stereo not drawn) | -1.2%
O=C(CCCSc1nc2ccccc2[nH]1)N1CCN(c2ccccc2)CC1 | -4.3%
CC(C)Cn1c(CN(Cc2ccccc2)Cc2ccccc2)nc2c1c(=O)n(C)c(=O)n2C | -9.1%
C=CCn1c(C)cc(C(=O)CN2C(=O)c3ccccc3C2=O)c1C | 9.1%
CC(=O)OC[C@@H]1O[C@H](C/C=N\OC[C@@H](O)COCc2ccco2)C=C[C@@H]1OC(C)=O | 1.2%[11.4 µM]
CN1C(=O)NC(c2cccc(O)c2)C(C(=O)c2cccs2)C1(O)C(F)(F)F (stereo not drawn) | -2.1%
Cc1ccc(-n2c(SCC(=O)OC(C)C)nnc2-c2cnccn2)cc1 | -2.1%
O=C(O)c1ccc2oc(SCC(=O)N3CCCCC3)nc2c1 | -1.4%
CCOc1ccccc1NC(=O)C1CCN(c2ccc(S(=O)(=O)N3CCCC3)cc2)CC1 | ?
CCSc1nnc(Cc2cc(=O)[nH]c(=O)[nH]2)n1-c1ccc(F)cc1 | -12.1%
CCN1CCCC1CN(Cc1cc2ccc(C)c(C)c2[nH]c1=O)C(=O)Nc1ccccc1OC (stereo not drawn) | -5.0%
Nc1cc(N)nc(SCC(=O)Nc2ccc3c(c2)OCCCO3)n1 | 1.4%
CN(C(=O)c1ccncc1)C1CCS(=O)(=O)C1 (stereo not drawn) | -1.6%
O=C(OCCN1CCOCC1)c1cccnc1 | 4.5%
O=C(Nc1nncs1)C1COc2ccccc2O1 (stereo not drawn) | -2.1%
O=C(O)C1CC(=O)N(Cc2ccccc2)C1 (stereo not drawn) | 18.8%
CC(=O)ON(C(C)=O)S(=O)(=O)c1ccc(Cl)cc1 | -7.0%
Nc1nnc(CC(=O)NCc2ccccc2)s1 | 15.8%
O=C1c2oc3ccccc3c(=O)c2C(c2cccc(Br)c2)N1Cc1ccco1 (stereo not drawn) | 5.3%
O=C(CN1CCOCC1)NC1C2CC3CC(C2)CC1C3 (stereo not drawn) | 3.4%
COCCn1c(SCC(=O)NCCc2ccccc2)nnc1-c1ccco1 | -8.2%
N=c1c2c(-c3ccccc3)c(-c3ccccc3)n(Cc3ccco3)c2ncn1Cc1ccco1 | ?
CCOC1(OCC)N=C(N)C2(C#N)C(c3cccc(OC)c3OC)C12C#N (stereo not drawn) | 10.2%
Cc1cccc(-n2ncc3c(NC(C)C)ncnc32)c1 | ?
CCOc1ccc(NC(=O)CCNc2c(N3CCCC3)c(=O)c2=O)cc1 | 13.2%
CCN(CC)S(=O)(=O)c1cccc(C(=O)NCC(=O)OCC(=O)NCc2ccccc2)c1 | -0.4%
NC(=O)c1c(N)sc2c1CCCCC2 | ?
COc1ccccc1NC(=O)C1=C(C)Nc2ncnn2C1c1ccc(C)o1 (stereo not drawn) | 1.7%
C=CCC1(O)C(=O)N2C(=C1C(=O)N1CCOCC1)c1ccccc1CC2(C)C (stereo not drawn) | 3.9%
c1csc(CNc2nc(-c3ccc4c(c3)OCO4)nc3ccccc23)c1 | ?
CCOc1ccc2[nH]c(=O)c(CN(Cc3ccccc3)C(=O)N3CCCC3)cc2c1 | ?
CCN(CC(=O)Nc1ccc2c(c1)OCCO2)CC(=O)Nc1cc(C)on1 | 12.6%
O=C(O)c1ccc2c(c1)nnn2C1CCCCC1 | 12.1%
O=C(CCC1CCCC1)N1CCN(C(=O)c2ccco2)CC1 | -10.0%
CC(=O)N=c1sc2c3ccccc3ccc2n1C | 5.0%
COc1ccc(-c2nnco2)cc1OC | -8.9%
Cc1c(C)n(C(=O)CSc2nncn2C)c2ccccc12 | 7.5%
O=C(NCCOc1ccccc1)c1ccc2c(c1)OCO2 | 4.1%
CN1CCN(CC(=O)N2CCn3c4c(c5cc(C6CCCCC6)ccc53)CCCC42)CC1 (stereo not drawn) | 2.8%
Cn1nnnc1SCc1nc2ccccc2[nH]1 | -0.5%
COc1ccccc1N1CCN(C(=O)COc2ccc(C)cc2Br)CC1 | -6.0%
O=C(Nc1nc2cc3c(cc2s1)OCCO3)c1cccc(S(=O)(=O)N2CCOCC2)c1 | -18.1%
COC1C[C@@H](O[C@@H]2C(C)C(=O)OC(C)C(C)[C@H](OC(C)=O)C(C)C(=O)[C@@]3(CO3)CC(C)C(OC3OC(C)CC(N(C)C)[C@H]3OC(C)=O)C2C)OC(C)[C@@H]1OC(C)=O (stereo partly drawn) | 6.8%
COC(=O)c1ccc(-c2ccco2)n1Cc1nc(-c2ccc(OC)c(OC)c2)oc1C | ?
Cc1ccc(S(=O)(=O)Nc2cc(NC(=O)CN3CCOCC3)ccc2Cl)cc1 | 0.5%
Cc1cc(NC(=O)NC(=O)c2ccc(F)cc2F)n[nH]1 | 1.6%
O=S(=O)(NCCNC/C=C\c1ccc(Br)cc1)c1cccc2cnccc12 | -3.4%
O=C(CSc1nc(-c2ccccc2)cs1)NCc1ccco1 | 0.4%
C=CCN1C(=O)C2(c3ccccc31)C1CCCC=C1C(C#N)=C(N)C2(C#N)C#N (stereo not drawn) | -12.9%
COc1ccc(C=Nc2c(O)ccc3ccccc23)cc1OC | 3.98µM*

# (continued)
smiles | HSD17B inh
O=C(CCn1cnc2ccccc2c1=O)Nc1ccc2c(c1)OCCO2 | -6.5%
Cc1cc(C)c(C#N)c(N2CCN(CCOc3ccc(Cl)cc3)CC2)n1 | -17.1%
Cc1ccc(NC(=O)CSc2nc3ccccc3c(=O)n2CCCC(=O)N2CCCC2)cc1 | 13.8%
CCn1c(C)nc2cc(C(=O)OCCC(F)(F)F)ccc21 | 5.4%
COc1ccccc1NC(=O)N1CCc2[nH]c3ccc(F)cc3c2C1 | ?
COCCCNc1nc2c(c(=O)[nH]c(=O)n2C)n1CC(O)COc1cccc(C)c1 (stereo not drawn) | -4.3%
CCOC(=O)c1ccc(NC(=O)c2cnccn2)cc1 | 4.8%
Cc1cccc(-n2c(C)nc3c(cnn3-c3ccc(F)cc3)c2=O)c1 | 9.6%
COc1ccc(Cl)cc1NC(=O)c1cccnc1 | -3.0%
Nc1nc(CSc2nnnn2-c2ccccc2)nc(N2CCCc3ccccc32)n1 | 7.8%
CCS(=O)(=O)Nc1ccc(C(=O)CC2(O)C(=O)Nc3ccccc32)cc1 (stereo not drawn) | -22.7%
COc1ccc(CCNC(=O)C2CCN(C(=O)N(C)C)CC2)cc1OC | -5.9%
Cc1nnc2sc(-c3csc4c3CCCC4)nn12 | -0.7%
COc1cc2[nH]c(=O)n(CCCCCC(=O)NCCCN3CCOCC3)c(=O)c2cc1OC | ?
O=C1CSC(=Nc2ccccc2Cl)N1 | 5.1%
Cc1cc(C)c(NC(=O)C(C)(C)C)c(Cl)c1 | 4.0%
COc1ccccc1-c1nnc(SCc2nc3ccccc3[nH]2)n1C | 18.4%
Cn1c2ccccc2c2cc(C(=O)OCC(=O)N3CC(=O)Nc4ccccc43)sc21 | 25.1µM*
COc1ccc(NC(=O)CSc2nnc(-c3cccs3)n2Cc2ccco2)cc1OC | -5.2%
CCCC(=O)Nc1ccccc1NC(C)=O | 2.4%
COc1ccc(-n2c(C)nnc2SCC(=O)N2C(C)CCCC2C)cc1 (stereo not drawn) | 4.3%
COc1ccc(CN2CCCCC2c2cccnc2)c(OC)c1C (stereo not drawn) | -5.3%
O=C(CCC1CCCC1)c1c(O)c2ccccc2oc1=O | -0.8%
COc1ccc(N(CC(=O)Nc2ccc3c(c2)OCCO3)S(=O)(=O)c2cccnc2)cc1 | -3.7%
OCC1OC(c2ccc3c(c2)OCO3)C=CC1Oc1cc(Cl)cc(Cl)c1 (stereo not drawn) | -7.5%[11.4 µM]
Cc1[nH]c(-c2ccco2)nc1C(=O)O | 2.3%
COc1ccccc1CNc1cc(-c2ccccc2C)ncn1 | 5.8%
Cc1ccc(Nc2cc(C)nc3nc(C)nn23)c(C)c1 | 2.2%
CCOC(=O)N1CCN(C(=O)CCn2nc(-c3ccc(Cl)cc3)ccc2=O)CC1 | 25.1µM*
COc1nccc(Nc2ccccc2)c1C#N | -14.7%
COc1ccc(N2CCN(C(=O)CSc3nnnn3-c3ccc4c(c3)OCCO4)CC2)cc1 | -6.4%
Oc1ccc2ccccc2c1CN(Cc1c(O)ccc2ccccc12)C1CCCCC1 | 3.16µM*
NCCCC(=O)N1c2ccccc2Sc2ccccc21 | 11.2%
COc1ccccc1NC(=O)c1ccccc1-c1nc(-c2ccccc2OC)no1 | -10.8%
CC1(C)CC(=O)C(CC(=O)NC(=O)NCc2ccccc2)=C(O)C1 | 9.5%
O=C(CNC(=O)c1ccco1)OCC(=O)c1ccc2c(c1)CCCC2 | -13.4%
O=S(=O)(Cc1ccccc1)/C1=C(\N2CCOCC2)CCCCCC1 | -8.6%
CCOC(=O)CC1=CSC2=NS(=O)(=O)CCN12 | 0.1%
COc1cccc(OCCCCCN2CCOCC2)c1 | 0.8%
Cc1ccc2nc(SCC(=O)N3CCCC3)[nH]c2c1 | -0.6%
CCCCn1c(-c2ccccc2)nc2c(=O)n(C)c(=O)[nH]c21 | 31.6µM*
O=C1[C@H]2[C@H]3[C@H](O)[C@H](O)C/C(=N/OC[C@@H](O)COCc4ccco4)[C@@H]3CC[C@@H]2C(=O)N1c1cccc(Oc2ccccc2)c1 | -4.0%[11.4 µM]
O=C(/C=N\O)NCCCNCc1ccccc1 | 5.2%
O=C(Nc1c(F)cc(F)cc1Br)c1ccco1 | -5.5%
COC(=O)c1[nH]c2cccc(OC)c2c1NC(=O)CCN1CCC(C(N)=O)CC1 | 31.6µM*
COc1ccc(CNC(=O)CN(CC2CCCO2)C(=O)CNS(=O)(=O)c2ccc(F)cc2)cc1 (stereo not drawn) | -7.6%
Cc1ccc(NC(=O)c2ccc3c(c2)N(CC(=O)N2CCCCC2)C(=O)C(C)(C)O3)cc1 | 6.4%
NC(=O)/N=N/C(N)=O | 12.6µM*
COc1ccccc1NC(=O)C1=C(C)Nc2nc(CCCO)nn2C1c1cccnc1 (stereo not drawn) | 2.6%
Cn1c(/C(C#N)=C(\O)CN2CCN(Cc3ccccc3)CC2)nc2ccccc21 | 9.4%

# Structures from the list above with a CF3 group:
smiles | HSD17B inh
CN1C(=O)NC(c2cccc(O)c2)C(C(=O)c2cccs2)C1(O)C(F)(F)F (stereo not drawn) | -2.1%
CCn1c(C)nc2cc(C(=O)OCCC(F)(F)F)ccc21 | 5.4%

# The listing continues:
smiles | HSD17B inh
ON1C(c2ccccc2)CC2(O)c3nonc3CCC12 (stereo not drawn) | 1.6%
C#CCOC(=O)CCC(=O)NCCc1ccccc1 | -2.1%
O=C(Cn1nnc(-c2ccc(CN3CCOCC3)cc2)n1)Nc1nc(-c2ccccc2)cs1 | 2.2%
COc1ccccc1OCc1csc(NC(=O)c2ccco2)n1 | 2.9%
CCc1nc(N[C@@H](Cc2c[nH]c3ccccc23)C(=O)O)c2oc3ccccc3c2n1 | ?
COCCn1c(SCC(=O)N2CCCc3ccccc32)nc2cccnc21 | -4.7%
Cc1nn(-c2ccc(F)cc2F)c2c1-c1nc(N3CCCC3)ncc1CC2 | 25.1µM*
N#CCC(=O)NCC1(c2ccccc2)CCCC1 | ?
COC(=O)c1sccc1NC(=O)C1CC2CCC1C2 (stereo not drawn) | 14.8%
O=C1COc2ccc(-c3csc(NCC4CCCO4)n3)cc2N1 (stereo not drawn) | -10.9%
O=C(COC(=O)c1ccccc1NC(=O)c1ccco1)NCc1ccc2c(c1)OCO2 | 31.6µM*
O=C(CCN1C(=O)COc2ccccc21)NCCC1=CCCCC1 | 9.3%
CC(NC(=O)Cc1cccs1)c1ccc2c(c1)OCO2 (stereo not drawn) | -20.9%
O=C(NCCO)c1ccc2c(c1)S(=O)(=O)c1ccccc1C2=O | 9.4%
OCCSc1nnc(Nc2ccccc2)s1 | -2.3%
CCCCc1nnc(NC(=O)CSc2nc(=O)cc(N)n2-c2ccccc2)s1 | ?
N=C(N)SCCc1ccc(OCc2ccc([N+](=O)[O-])cc2)cc1 | -19.0%
CCC(C(=O)Nc1nccs1)c1ccccc1 (stereo not drawn) | -5.0%
Cc1cc(=O)[nH]c(SCc2cc(=O)n3nc(C)sc3n2)n1 | 2.3%
COc1ccc(S(=O)(=O)N2CCC(C(=O)Nc3c(F)cccc3F)CC2)cc1 | 3.0%
Cc1cccc(C(=O)N2CCN(C(=O)c3cccc(C)c3)C(C)C2)c1 (stereo not drawn) | 3.0%
COc1ccc(CNc2nc(-c3cccc(NS(C)(=O)=O)c3)nc3ccccc23)c(OC)c1 | -0.7%
COc1ccccc1C(=O)N(Cc1ccco1)C1CCS(=O)(=O)C1 (stereo not drawn) | 12.5%
Cc1nnc(N(Cc2ccccc2)C(=O)c2cnccn2)s1 | 8.0%
CCOC(=O)c1cnc(-n2cc(C)cn2)nc1Nc1ccccc1OC | 0.6%
Cc1nc(N2CCN(c3ccccc3)CC2)[nH]c(=O)c1Cc1ccccc1 | 8.8%
Cn1cccc1Cc1nnc(SCC(=O)NCCc2ccccc2)n1-c1ccc(F)cc1 | 3.9%
COc1ccc(NC(=O)CCN2C(=O)C3CC=C(Cl)CC3C2=O)cc1 (stereo not drawn) | -2.6%
Cc1c(C(=O)NCCc2ccccc2)oc2ccc(S(=O)(=O)N3CCOCC3)cc12 | -1.1%
